Screens from PubChem BioAssay.
RE007 growth inh: qHTS Assay for Inhibitors of the HIV-1 protein Vpr; S. pombe RE007 Vpr strain, BacTiter-Glo ATP luminescence, 24 h; control for the full effect not named in the record; Potency, µM (highest dose often 92.2 µM), inactives show at the top dose activity change, negative = less growth; 360,000 tested, 0.21% active; AID 651644, 2012; active = well fitted falling curve with a large enough effect; inconclusive = small, poorly fitted or top-dose-only effect; inactive = no such curve, though single readings can be large or run the other way;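 also: % is scaled to controls: 0 for no effect and ±100 for the full control effect; nearly all actives have a fitted effect of over 50% in size; the assay follows cell death caused by Vpr and the record does not say whether a fall means rescue or toxicity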
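Fission yeast strain RE007, carrying one chromosomally integrated HIV-1 vpr copy, was seeded at OD 0.01 in PMG+AL medium with 23 nL pinned compound. After 24 h at 30 °C and 99% humidity, viability was read by BacTiter-Glo luminescence.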
NS1 function inh: qHTS Assay for Inhibitors of Influenza NS1 Protein Function; S. cerevisiae slowed by influenza A NS1, growth recovery by OD600; AID 2326, 2010; Potency, µM (titrated, usually from 46.1 µM), for inactives: at the top dose activity, positive = more growth; 270,000 tested, 0.4% active; also: actives are rising curves; nearly all actives have a fitted effect of over 50% in size
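Read-out: OD600 growth recovery of NS1-expressing budding yeast. Cells grown overnight at 30C in -URA glucose medium, washed, resuspended and diluted 1:100 in 2% galactose assay medium, pH 6.0. Same strain lacking NS1 served as positive control.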
Cruzain inh Det: qHTS Assay for Promiscuous and Specific Inhibitors of Cruzain (with detergent); Cruzipain (Trypanosoma cruzi), P25779; 200,000 tested, 0.43% active; Potency, µM, for the others: max response, negative = inhibition, hits mostly inhibitors; purified cruzain, Z-FR-AMC fluorescence, 0.01% Triton; AID 1478, 2009; active = well fitted curve in the direction sought with a large enough effect; inconclusive = small, poorly fitted or top-dose-only effect, or another doubt; inactive = no such curve, though single readings can be large; an effect the other way counts as inactive or inconclusive;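 also: plate controls were neutral wells for no effect and buffer without enzyme for full effect; nearly all actives have a fitted effect of over 40% in size; top concentration of the series not given in the record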
Target sequence (P25779 123-467 limits assumed): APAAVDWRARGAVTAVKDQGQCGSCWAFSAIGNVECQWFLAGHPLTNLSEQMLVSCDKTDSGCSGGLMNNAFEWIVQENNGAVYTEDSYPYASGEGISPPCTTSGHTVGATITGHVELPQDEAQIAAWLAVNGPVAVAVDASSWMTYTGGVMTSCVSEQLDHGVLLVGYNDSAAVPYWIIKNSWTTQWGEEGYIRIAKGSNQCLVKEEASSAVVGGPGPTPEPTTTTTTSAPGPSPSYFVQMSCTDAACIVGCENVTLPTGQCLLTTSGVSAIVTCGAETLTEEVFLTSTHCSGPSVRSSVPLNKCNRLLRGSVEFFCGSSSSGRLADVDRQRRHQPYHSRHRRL
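Compounds were screened in titration against cruzain (1.5 nM) with 0.01% Triton X-100 to counter colloidal aggregation. Activity was the AMC fluorescence increase over 60 s after adding 2 uM Z-FR-AMC at pH 5.5.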
SARS PLP yeast: qHTS of Yeast-based Assay for SARS-CoV PLP. Potency, µM (highest dose often 32.9 µM), inactives show at the highest dose activity, positive = growth rescue. AID 485353, 2010. 330,000 tested, 0.19% active. S. cerevisiae expressing SARS-CoV PLpro, growth rescue; control for the full effect not named in the record; also: 0% is about no effect; nearly all actives have a fitted effect of over 55% in size; growth read by luminescence after 48 h
Lassa entry inh: qHTS for Inhibitors of binding or entry into cells for Lassa Virus; Lassa virus pseudotype entry inhibition, cell reporter; control for the full effect not named in the record; 300,000 tested, 1.2% active; AID 540256, 2011; Potency, µM (top dose mostly 37.9 µM), inactives show at the highest dose activity change, negative = inhibition, actives largely listed as inhibitors; active means well fitted inhibition curve with a large enough effect; inconclusive means small, poorly fitted or top-dose-only effect, or effect the other way; inactive means flat fitted curve, though single readings scatter; tested in HEK293 cells; also: % is scaled to controls: 0 for no effect and ±100 for the full control effect; nearly all actives have a fitted effect of over 50% in size; luciferase read-out
MARV entry inh: qHTS for inhibitors of binding or entry into cells for Marburg Virus. 300,000 tested, 1.8% active. Potency, µM (series often up to 37.8 µM), without a hit: at the top dose activity change, negative = inhibition, most hits filed as inhibitors. Marburg virus pseudotyped entry inhibition, cell reporter; control for the full effect not named in the record; about a third of the inactives were read at about 46 µM; active = well fitted inhibition curve with a large enough effect; inconclusive = small, poorly fitted or top-dose-only effect, or effect the other way; inactive = flat fitted curve, though single readings scatter; tested in HEK293 cells; about a fifth of its hits are not listed in these tables; also: % is scaled to controls: 0 for no effect and ±100 for the full control effect; luciferase read-out
StopGo reporter: High Throughput Screening for Foot and Mouth Disease Virus Antivirals. human cells with a luciferase reporter of 2A StopGo recoding; control for the full effect not named in the record. Potency, µM (top dose mostly 57.9 µM), without a hit: top-dose signal change, negative = less light. 410,000 tested, 1.2% active; active = well fitted falling curve with a large enough effect; inconclusive = small, poorly fitted or top-dose-only effect; inactive = no such curve, though single readings can be large or run the other way; tested in HEK293T cells; also: % is scaled to controls: 0 for no effect and ±100 for the full control effect; nearly all actives have a fitted effect of over 45% in size; luciferase light after 4 h
Cruzain noTriton: qHTS Assay for Promiscuous and Specific Inhibitors of Cruzain (without detergent); AID 1476, 2009; Potency, µM, for the others: max response, negative = inhibition, most hits filed as inhibitors; purified cruzain, Z-FR-AMC fluorescence, no detergent; 200,000 tested, 2.3% active; active = well fitted curve in the direction sought with a large enough effect; inconclusive = small, poorly fitted or top-dose-only effect, or another doubt; inactive = no such curve, though single readings can be large; an effect the other way counts as inactive or inconclusive;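 also: plate controls were enzyme without inhibitor for no effect and buffer without enzyme for full effect; nearly all actives have a fitted effect of over 40% in size; top concentration of the series not given in the record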
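Detergent-free condition (0.00005% Triton X-100) in acetate buffer pH 5.5 with DTT. 1.5 nM enzyme and compound were pre-mixed 15 min, then 2 uM Z-FR-AMC substrate added; reaction progress from fluorescence change between first and third reads (60 s).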
An asterisk follows results filed as active; ? = inconclusive; · = not tested or not shown; & = joins results of further samples; [ ] = another dose, or the depositor's remark. Unless noted, calls follow the shape of the dose curve; as a rule, active means well fitted rising curve with a large enough effect; inconclusive means small, poorly fitted or top-dose-only effect; inactive means no such curve, though single readings can be large or run the other way. Potency is read from the fitted curve at half-maximal effect.

SMILES	RE007 growth inh	NS1 function inh	Cruzain inh Det	SARS PLP yeast	Lassa entry inh	MARV entry inh	StopGo reporter	Cruzain noTriton
CCN1C(=NCCOC)N[C@@H](CCc2ccccc2)[C@H](C(=O)OC)[C@H]1C	5%	-7%&4%	·	15%	·	·	-8%	·
CCCCOC(=O)c1ccc(NC(=O)CSCc2n[nH]c(=O)[nH]2)cc1	3%	-2%	-2.2%	-2%	10%	5%	2%	3%
Cc1ccsc1C(=O)N1CCCC(CCC(=O)N2CCN(c3ccccn3)CC2)C1 (stereo unspecified)	-11%	-2%	·	1%	·	·	-19%	·
COc1ccc(CN=C(C)c2c(C(F)(F)F)[nH]n(-c3nc4ccccc4s3)c2=O)cc1	-23%	11%	-0.7%	-4%	25%	-5%	-17%	-12%
C=C(C)C(=O)Nc1cccc(C2=NOC3(C2)C[C@@H](C(N)=O)N(C(=O)CCCCC)C3)c1 (stereo partly specified)	-3%	2%	·	1%	·	·	-9%	·
Nc1cccc(Oc2ccc3c(c2)C(=O)N(CC2CCCO2)C3=O)c1 (stereo unspecified)	2%	2%	·	1%	·	·	9%	·
Nc1nc(-c2ccc(Cl)cc2)cc(C(F)(F)F)n1	-25%	5%	-4.9%	-2%	?	-28%	8%	-27%
COc1ccccc1OCC(=O)Nc1ccc2c(c1)OCCO2	-17%	-7%	·	0%	?	26%[46.1 µM]	24%	·
Cn1ccc(NC(=O)Nc2ccc(Cl)cc2)n1	5%	-10%	·	-1%	-10%	5%[46.1 µM]	40%[activator]	·
C[C@H](NC(=O)N1CCn2c1nc1ccccc12)C(=O)NCc1ccc(F)cc1	-5%	-10%	·	-5%	·	·	-19%	·
Cc1ccc2[nH]c(=O)c(CN3CCCCC3)c(-c3ccccc3)c2c1	-13%	7%	·	-1%	9%[46.1 µM]	?	-18%	·
COc1cc(C)c(S(=O)(=O)N2CCOCC2)c(C)c1C	-5%	-4%	·	-1%	-15%	·	-19%	·
COc1cccc(-n2cc(C(=O)Nc3cc(OC)c(OC)c(OC)c3)c3ccccc3c2=O)c1	·	·	-0.2%	·	?	·	-16%	-7%
O=C(Nc1nnc(C2CC2)o1)c1ccc(S(=O)(=O)N2CCCc3ccccc32)cc1	-6%	-100%	-4.5%	22%	·	3%	0%	23%
N#Cc1ccc(N2CCOCC2)c([N+](=O)[O-])c1	2%	0%	·	2%	-9%	4%[46.1 µM]	-1%	·
CC1=NNC(=O)C1CCC(=O)N/N=C(\C)c1ccccc1 (stereo unspecified)	27%	-1%	·	5%	5%	-2%[46.1 µM]	-5%	·
CCOC(=O)/C(C#N)=C/c1ccc(N2CCCCC2)cc1	1%	-8%	·	-1%	-21%	-4%	23%	·
Clc1ccc(N2CCN(Cc3ccccc3Cl)CC2)cc1	10%	3%	5.6%	-1%	-1%	2%	0%	-3%
Nc1nonc1C(=O)NCCNCc1ccccc1F	·	·	-1.7%	·	0%[46.1 µM]	-11%[46.1 µM]	8%	2%
CCCN1CCC(NC(=O)C2CCN(C(C)=O)CC2)CC1	-10%	3%	·	3%	4%	18%	-11%	·

Two records picked at random from those above, as already listed:
SMILES	RE007 growth inh	NS1 function inh	Cruzain inh Det	SARS PLP yeast	Lassa entry inh	MARV entry inh	StopGo reporter	Cruzain noTriton
Clc1ccc(N2CCN(Cc3ccccc3Cl)CC2)cc1	10%	3%	5.6%	-1%	-1%	2%	0%	-3%
C=C(C)C(=O)Nc1cccc(C2=NOC3(C2)C[C@@H](C(N)=O)N(C(=O)CCCCC)C3)c1 (stereo partly specified)	-3%	2%	·	1%	·	·	-9%	·

The results go on:
SMILES	RE007 growth inh	NS1 function inh	Cruzain inh Det	SARS PLP yeast	Lassa entry inh	MARV entry inh	StopGo reporter	Cruzain noTriton
Brc1ccc(-c2nnc(-c3cccnc3)c3conc23)cc1	0%	·	·	·	2%	-2%	5%	·
COc1ccc(N(C(=O)Cn2nnc(-c3ccccc3F)n2)C(C(=O)NCC2CCCO2)c2ccc(Cl)cc2)cc1 (stereo unspecified)	16%	-2%	·	0%	·	?	-17%	·
CC1CCCN(C(=O)c2cc(-c3cccs3)nc3ccccc23)C1 (stereo unspecified)	3%	·	·	-10%	-27%[46.1 µM]	?	-17%	·
Cc1nc(-c2ccccc2)sc1-c1n[nH]c(=S)n1C	5%	-5%	2.4%	-4%	11%	19%	28%	7%
CC(c1ccccc1)c1nnc(NC(=O)Nc2ccccc2)s1 (stereo unspecified)	5%	-6%	·	?	?	?	-21%	·
O=[N+]([O-])c1ccc(NC(=S)NCc2ccc(F)cc2)cc1	-2%	-130%	·	-23%	?	?	-6%	·
COc1cc(C)c(N(C(C)=O)c2ccccc2)c(C)c1	-1%	?	-1.1%	14%	13%	-13%	?	13%
O=C(COC(=O)c1ccco1)NCc1ccc(F)cc1	-11%	5%	·	1%	3%[46.1 µM]	-6%[46.1 µM]	-6%	·
CCOC(=O)C(C#N)c1ccccn1 (stereo unspecified)	-2%	0%	-0.4%	1%	49%[14.3 µM]	27%	46%[activator]	-8%
C/C(CC(O)(/C=N/O)c1ccccc1)=N\O (stereo unspecified)	29%	?	6.9%	15%	2%	-11%	-10%	-2%
COc1ccc(-n2c3c(cc(C(=O)Nc4cccc(C)n4)c2=O)C(=O)CC(C)(C)C3)cc1	-1%	-2%	·	-1%	?	?	-12%	·
CCC(C(=O)Nc1ccccn1)c1ccccc1 (stereo unspecified)	10%	·	·	·	9%	1%[46.1 µM]	1%	·
COc1ccc(NC(=O)c2cccn(Cc3ccc(Cl)cc3)c2=O)c(OC)c1	·	·	-8.3%	·	?	·	?	26%
COc1ccc(F)cc1C(=O)C1CCCN(Cc2ccc(O)cc2)C1 (stereo unspecified)	-11%	-5%	·	-2%	3%	14%	-15%	·
COc1ccc(-n2cnc3cc(NC(=O)c4ccco4)ccc32)cc1	-10%	-132%	-2.4%	-2%	-10%	2%	27%	4%
Cc1ccc(S(=O)(=O)Cc2ccc(C(=O)N3CCc4ccccc4C3)o2)cc1	14%	-4%	-4.2%	-5%	·	·	-13%	-5%
COc1ccc2c(N)c(C(=O)NN)[nH]c2c1	0%	2%	·	1%	-23%	?	6%	·
COc1ccc(-c2nnc3sc(CCN4C(=O)c5ccccc5C4=O)nn23)cc1	2%	-31%	-2.8%	-3%	11%	-15%[46.1 µM]	-15%	-8%
O=C(NC1CCCCC1)c1ccccc1NC(=O)C1CC1	1%	12%[9.22 µM]	-2.7%	?	-5%	22%	14%	?
COc1cccc(NC(=O)CSc2nc(C3CC3)nc3ccccc23)c1	-12%	8%	·	-2%	?	-19%[46.1 µM]	?	·
O=S(=O)(NC1c2cccc3cccc(c23)C1Sc1ncccn1)c1ccccc1 (stereo unspecified)	22%	-33%	-2.7%	-36%	-29%	?	-18%	?
Cc1cccn2c(=O)c3cc(C(=O)NCC4CCCO4)c(=N)n(Cc4ccc(F)cc4)c3nc12 (stereo unspecified)	-15%	3%	·	1%	?	?	-3%	·
O=C(Nc1cccc(Br)c1)N1CCN2CCCCC2C1 (stereo unspecified)	·	·	-1.1%	·	19%[46.1 µM]	·	3%	7%
Cc1cc([N+](=O)[O-])nn1Cc1noc(C(=O)NCc2ccc3c(c2)OCO3)n1	5%	-12%	·	-3%	8%[46.1 µM]	-14%[46.1 µM]	20%	·
Cc1cc(C)cc(NC(=S)N(CCN(C)C)C(C)c2cccnc2)c1 (stereo unspecified)	-18%	·	·	-2%	?	14%[46.1 µM]	18%	·
COc1ccc(CCNC(=O)COC(=O)Cn2cnc3ccccc3c2=O)cc1	4%	-37%	·	4%	0%[46.1 µM]	-17%[46.1 µM]	7%	·
Cc1ccc(CNS(=O)(=O)c2ccc3c(c2)NC(=O)C(C)S3)cc1 (stereo unspecified)	-13%	-5%	·	-1%	·	·	0%	·
O=[N+]([O-])c1ccccc1/C=C/CN1CCCC(CO)C1 (stereo unspecified)	-2%	12%	·	1%	23%	16%	-20%	·
N#Cc1ccccc1OCC(=O)OCC(=O)c1ccc2c(c1)NC(=O)CO2	12%	-6%	-1.8%	-13%	-1%	-9%	11%	-7%
Cc1ccc(-c2c(C)n([O-])c3c([n+]2=O)CCC3)o1	-4%	1%	-0.8%	6%	13%	12%	12%	-3%
CCN(C(=O)CSc1nc2ccccc2n1CC(=O)Nc1ccc(F)cc1F)c1ccccc1	·	·	-3.3%	·	11µM*	·	5%	?

Some of these compounds in order of number of heavy atoms, descending.
SMILES	RE007 growth inh	NS1 function inh	Cruzain inh Det	SARS PLP yeast	Lassa entry inh	MARV entry inh	StopGo reporter	Cruzain noTriton
Cc1ccsc1C(=O)N1CCCC(CCC(=O)N2CCN(c3ccccn3)CC2)C1 (stereo unspecified)	-11%	-2%	·	1%	·	·	-19%	·
N#Cc1ccccc1OCC(=O)OCC(=O)c1ccc2c(c1)NC(=O)CO2	12%	-6%	-1.8%	-13%	-1%	-9%	11%	-7%
Nc1cccc(Oc2ccc3c(c2)C(=O)N(CC2CCCO2)C3=O)c1 (stereo unspecified)	2%	2%	·	1%	·	·	9%	·
CC1CCCN(C(=O)c2cc(-c3cccs3)nc3ccccc23)C1 (stereo unspecified)	3%	·	·	-10%	-27%[46.1 µM]	?	-17%	·
Brc1ccc(-c2nnc(-c3cccnc3)c3conc23)cc1	0%	·	·	·	2%	-2%	5%	·
CCCN1CCC(NC(=O)C2CCN(C(C)=O)CC2)CC1	-10%	3%	·	3%	4%	18%	-11%	·
C/C(CC(O)(/C=N/O)c1ccccc1)=N\O (stereo unspecified)	29%	?	6.9%	15%	2%	-11%	-10%	-2%
